# Ecoli rRNA inh – inhibits bacterial ribosomal RNA function over humanized ribosomes | 1.6% of 350,000 active | AID 720706 | GFP signal change (wild-type ribosome), % (no concentration beside the values) | E. coli WT GFP vs humanized-ribosome RFP mutants, fluorescence, 24 h; active compounds read low; DMSO median 0, no signal -100;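 active = significant combined selectivity score with lowered wild-type GFP, culture density cut under 30%, mutant RFP and density less affected; inactive = any of these conditions unmet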; also: one replicate is shown; some compounds called inactive have numbers as strong as hits
# Ecoli rRNA inh OD600 – also measured in Ecoli rRNA inh; calls as there; OD600 change, %; measured here: OD600 growth;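 optical density of the mix in the first replicate; 0 = DMSO median and -100 = no signal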
# Ecoli rRNA inh RFP – further read-out of Ecoli rRNA inh, marked with its call; RFP signal change, %; measured here: RFP humanized mutant strains;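 first replicate; 0 = DMSO median and -100 = no signal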
# * hit, by the source's call; & = joins results of further samples. Some of the compounds tested, so the mix of outcomes need not match the whole.
Ecoli rRNA inh RFP	Ecoli rRNA inh	Ecoli rRNA inh OD600	structure
-1.9	2	5	CC(C)C#Cc1cnc2c(c1)C(=O)N([C@H](C)CO)C[C@H](C)[C@H](CN(C)C(=O)Nc1ccc(F)cc1)O2
2.5	1	1	O=C(C1CCC1)N1CC(=O)N2[C@H](C1)[C@H](c1ccc(C#CCc3ccccc3)cc1)[C@@H]2CO
1.2&2.0	0&-1	-1&3	CC(=O)N1C[C@@H]2C(c3ccccc3)[C@H](C1)N2C(C)=O (stereo partly specified)
-3.2&2.4	-1&2	-4&23	COc1cccc(S(=O)(=O)N2C[C@@H]3N[C@H](C2)C3c2ccc(-c3cccc(C(=O)N(C)C)c3)cc2)c1 (stereo partly specified)
-2.1	-1	7	Cc1noc(C)c1NC(=O)Nc1ccc2c(c1)C(=O)N(C)[C@H]1CC[C@H](CC(=O)N[C@@H]3CCN(Cc4ccccc4)C3)O[C@H]1CO2
5.3	-8	-22	COc1ccc(-c2ccc3c(c2)[C@H]2[C@H](CCN2C(=O)NC2CCCCC2)[C@H](CO)N3C)cc1
2.3	-3	-10	C[C@H](CO)N1C[C@H](C)[C@@H](CN(C)Cc2ccc(Cl)c(Cl)c2)Oc2ccc(NC(=O)Nc3ccc(F)cc3)cc2C1=O
-2.2&1.8	13&0	1&-3	C[C@H](CO)N1C[C@H](C)[C@H](CN(C)C(=O)Nc2ccccc2F)OCc2cnnn2CCCC1=O
0.2	2	7	CN(C)CC#Cc1ccc([C@@H]2[C@@H](CO)N3C(=O)CN(C(=O)c4ccc(F)cc4)C[C@@H]23)cc1
0.0	2	-3	O=C(C[C@H]1CC[C@@H](NC(=O)C2CC2)[C@H](CO)O1)NC1CCC1
-1.7	0	-4	CC=Cc1ccc2n(c1=O)C[C@@H]1[C@@H](CO)[C@H](C(=O)NCC(F)(F)F)[C@H]2N1C(=O)C1CCCC1 (mixture of isomers)
-0.1	8	-10	COc1ccc(CNC(=O)c2cn(Cc3ccc(OC(C)=O)cc3)c(=O)s2)cc1
-1.3	-1	2	CO[C@H]1CN(C)C(=O)c2cc(NC(=O)Nc3ccc(F)cc3)ccc2OC[C@@H](C)NC[C@H]1C
-0.7	4	15	CS(=O)(=O)Nc1ccc2c(c1)[C@H]1C[C@H](CC(=O)NCc3cccc(F)c3)O[C@H](CO)[C@H]1O2
-2.0	-4	-2	Cc1ccc(S(=O)(=O)Nc2ccc3c(c2)C(=O)N([C@H](C)CO)C[C@@H](C)[C@@H](CN(C)C(=O)Nc2ccc4c(c2)OCO4)OCCCC[C@H](C)O3)cc1
-5.0	18	22	COCCN1C(=O)c2ccccc2C1c1nnnn1C(C)C (stereo unspecified)
2.7	-1	-9	COc1cccc(S(=O)(=O)N(C)C[C@H]2OCc3ccccc3-c3ccccc3C(=O)N([C@H](C)CO)C[C@H]2C)c1
0.1	3	-1	CO[C@@H]1CN(C)C(=O)c2cc(NS(=O)(=O)c3ccccc3C)ccc2OC[C@H](C)NC[C@@H]1C
-1.5	-3	-6	CO[C@H]1CN(C)C(=O)c2ccc(NC(=O)c3ccccc3F)cc2OC[C@@H](C)N(C(C)=O)C[C@@H]1C
-0.6	2	-5	C[C@@H]1CN([C@@H](C)CO)S(=O)(=O)c2ccc(C#CC3CC3)cc2O[C@H]1CN(C)C(=O)CN(C)C
10	-10	-40	CCc1csc(N2[C@@H](C#N)[C@@H](c3ccc(-c4cccc(F)c4)cc3)[C@@H]2CO)n1
-1.1	6	2	C[C@@H]1CN([C@H](C)CO)C(=O)c2cc(Br)cnc2O[C@H]1CN(C)C(=O)c1cccnc1
-1.1	5	0	CC(C)NC(=O)Nc1ccc2c(c1)CC(=O)N([C@@H](C)CO)C[C@@H](C)[C@H](CN(C)Cc1ccccc1)O2
1.0	-2	-1	COc1ccc(S(=O)(=O)N(C)C[C@@H]2OCCCC[C@H](C)Oc3ccc(NS(=O)(=O)c4cn(C)cn4)cc3C(=O)N([C@H](C)CO)C[C@@H]2C)cc1
-2.6	9	18	COc1ccc(C(C)C)cc1-c1cc(C(=O)NCc2cccc(C(F)(F)F)c2)[nH]n1
2.1	-9	-17	CCOC(=O)C1=CCC(c2ccc(C#N)cc2)N(S(=O)(=O)c2ccc(C)cc2)C1 (stereo unspecified)
-1.0	3	8	COc1ccc(NC(=O)N(C)C[C@H]2Oc3c(NC(=O)C4CC4)cccc3C(=O)N([C@@H](C)CO)C[C@@H]2C)cc1
-1.4	4	8	O=C(C[C@@H]1C=C[C@@H](NC(=O)CCN2CCCCC2)[C@@H](CO)O1)Nc1nccs1
0.0	9	11	O=C(c1ccncc1)N1CC2(C1)[C@@H](c1ccccc1)[C@H](CO)N2C(=O)c1ccncc1
0.1	3	10	O=C(CN1CCOCC1)N1CC[C@@H]2[C@H]1c1cc(Br)ccc1N[C@@H]2CO
1.3	6	0	C[C@@H]1CCCCO[C@@H](CN(C)CC2CCCCC2)[C@H](C)CN([C@@H](C)CO)C(=O)c2cc(NC(=O)CCCN(C)C)ccc2O1
2.8	-3	2	Cc1noc(C)c1S(=O)(=O)N(C)C[C@H]1OCCCC[C@@H](C)Oc2ccc(NS(=O)(=O)c3cn(C)cn3)cc2C(=O)N([C@@H](C)CO)C[C@H]1C
-0.4	-2	1	CCS(=O)(=O)N1CC(=O)N2[C@H](CO)[C@H](c3ccc(-c4ccc(F)cc4)cc3)[C@@H]2C1
-0.9	4	8	COc1ccc(NC(=O)N(C)C[C@@H]2Oc3ccc(NS(=O)(=O)c4c(C)noc4C)cc3C(=O)N([C@H](C)CO)C[C@@H]2C)cc1
-1.3	0	3	CO[C@H]1CN(C)C(=O)c2cc(NC(C)=O)ccc2OC[C@H](C)N(C(=O)c2ccc(F)cc2)C[C@H]1C
-0.2	1	3	COc1ccc(OC)c(N(CCN2C(=O)c3ccccc3C2=O)C(=O)CCl)c1
4.9	1	-2	COc1ccc(NC(=O)Nc2ccc3c(c2)C(=O)N([C@@H](C)CO)C[C@H](C)[C@@H](CN(C)C(=O)Nc2ccc(F)cc2)OCCCC[C@H](C)O3)cc1
1.6	-3	0	C[C@H](NC(=O)c1ncn2c1c(=O)[nH]c1ccccc12)c1ccccc1
-3.5	-18	-18	COc1ccc(CN2CCN(C(=O)c3ccccc3C(=O)c3ccccc3)CC2)cc1F
-1.1	-4	-4	C[C@H]1CN([C@@H](C)CO)C(=O)c2cccc(NC(=O)CCCCCC(=O)Nc3ccccc3N)c2O[C@H]1CN(C)S(=O)(=O)c1cccs1
0.7	14	26	CC(C)[C@H](NC(=O)c1ccc(Cl)cc1)C(=O)Nc1cccc(S(=O)(=O)N2CCOCC2)c1
-5.3	-14	-31	Cc1cccc(C)c1NC(=O)c1ccc(-c2cc(F)ccc2F)o1
-2.4	-4	-2	CC(C)NC(=O)Nc1ccc2c(c1)C(=O)N([C@@H](C)CO)C[C@@H](C)[C@@H](CN(C)C(=O)c1ccncc1)OCCCC[C@@H](C)O2
-0.1	0	5	CO[C@@H]1CN(C)C(=O)c2ccc(NC(=O)c3ccccc3)cc2OC[C@@H](C)N(CC2CC2)C[C@@H]1C
1.7	-10	-9	CN1CCC(OC2c3ccccc3CCc3ccccc32)CC1
11	1	-22	C[C@@H]1CN([C@H](C)CO)C(=O)c2cc(NC(=O)Nc3ccccc3)ccc2O[C@@H](C)CCCCO[C@H]1CN(C)Cc1ccc2c(c1)OCO2
0.4	2	12	CNC[C@H]1Oc2c(NS(=O)(=O)c3cccs3)cccc2C(=O)N([C@@H](C)CO)C[C@@H]1C
6.5	-2	-1	CC(C)CC#Cc1ccc2c(c1)O[C@@H](CN(C)C(=O)c1ccccc1F)[C@@H](C)CN([C@H](C)CO)S2(=O)=O
-2.5	4	-3	C[C@@H]1CN([C@@H](C)CO)C(=O)Cc2cc(NS(C)(=O)=O)ccc2O[C@H]1CN(C)CC1CC1
-3.2	1	-2	CC(C)n1c(=O)c2ccccc2n1Cc1cn(CCc2c[nH]c3ccccc23)nn1
1.0	-4	-20	C[C@H]1CN([C@@H](C)CO)C(=O)c2cc(NC(=O)Cc3ccccc3)ccc2O[C@H]1CN(C)S(=O)(=O)c1cccs1
-3.6	-3	0	COc1ccc(CN(C)C[C@H]2Oc3c(NC(=O)CCCCCC(=O)Nc4ccccc4N)cccc3C(=O)N([C@H](C)CO)C[C@@H]2C)cc1
-1.3	1	3	C[C@H]1CN([C@@H](C)CO)C(=O)Cc2cc(N(C)C)ccc2O[C@@H]1CN(C)C(=O)Nc1ccc(C(F)(F)F)cc1
-0.6	-4	-9	CN1OC[C@@H]2CN(C(=S)Nc3ccc(C#N)cc3)[C@H](c3ccc(N4CCCCC4)cc3)C[C@@H]21
-3.2	1	3	COC(=O)C[C@H]1CC[C@@H](NS(=O)(=O)c2ccccc2F)[C@@H](CO)O1
0.1	-2	-5	CC(C)NC(=O)N(C)C[C@H]1OCCCC[C@H](C)Oc2ccc(NC(=O)Nc3ccccc3)cc2C(=O)N([C@H](C)CO)C[C@@H]1C
3.4	-11	-23	C[C@H]1CN([C@@H](C)CO)C(=O)c2cccc(NC(=O)C3CCCCC3)c2O[C@H]1CN(C)Cc1ccc(-c2ccccc2)cc1
-1.3	2	0	CCNC(=O)C[C@@H]1CC[C@H]2[C@@H](COc3ccc(NC(=O)Nc4ccc(C)cc4)cc3C(=O)N2C)O1
-2.6&1.8	0&12	2&9	O=C(N[C@H]1C=C[C@H](CC(=O)N2CCCCC2)O[C@@H]1CO)c1cccc(F)c1
-0.8	1	5	C[C@@H]1CN([C@H](C)CO)C(=O)CCCn2nncc2CO[C@H]1CN(C)C(=O)CCCN(C)C

# The listing continues.
Ecoli rRNA inh RFP	Ecoli rRNA inh	Ecoli rRNA inh OD600	structure
-0.9	3	1	Cc1ccccc1NC(=O)Nc1ccc2c(c1)C(=O)N(C)[C@H]1CC[C@H](CC(=O)O)O[C@@H]1CO2
1.9	0	-8	COc1ccc(NC(=O)Nc2cccc3c2O[C@H](CN(C)C(=O)Nc2cccc4ccccc24)[C@@H](C)CN([C@H](C)CO)C3=O)cc1
-1.2	0	0	Cc1noc(C)c1NC(=O)N(C)C[C@H]1OCCCC[C@H](C)Oc2ccc(NC(=O)Nc3ccc4c(c3)OCO4)cc2C(=O)N([C@H](C)CO)C[C@@H]1C
0.1	0	-1	C[C@@H]1CN([C@H](C)CO)C(=O)c2cc(NC(=O)NC3CCCCC3)ccc2O[C@@H](C)CCCCO[C@@H]1CN(C)C(=O)NC1CCCCC1
-1.5	0	-6	CCC(=O)N1[C@H](CO)[C@@H](c2ccc(-c3cccnc3)cc2)[C@@H]1CN(C)C(C)=O
-3.5	2	1	Cc1noc(C)c1NC(=O)Nc1ccc2c(c1)C(=O)N(C)[C@H]1CC[C@@H](CC(=O)N[C@H]3CCN(Cc4ccccc4)C3)O[C@H]1CO2
3.7	5	2	COC(=O)[C@]12CCCCC=C1N(Cc1ccc3c(c1)OCO3)C(=O)[C@H](CC(=O)NCCCCc1ccccc1)C2
-1.2	-3	-1	Cc1ccc(S(=O)(=O)Nc2ccc3c(c2)C(=O)N([C@H](C)CO)C[C@H](C)[C@H](CN(C)S(=O)(=O)c2cccs2)OCCCC[C@H](C)O3)cc1
3.0	4	18	CC(C)NC(=O)N(C)C[C@@H]1OCCCC[C@@H](C)Oc2ccc(NC(=O)CCC(F)(F)F)cc2C(=O)N([C@@H](C)CO)C[C@@H]1C
1.3	0	-3	C[C@H]1CN([C@@H](C)CO)C(=O)c2cccc(NC(=O)NC3CCCCC3)c2O[C@@H]1CN(C)S(=O)(=O)c1cccs1
-4.7	0	19	C[C@H]1CN([C@@H](C)CO)C(=O)c2cccc(NC(=O)c3ccncc3)c2O[C@H]1CN(C)C(=O)Nc1ccc2c(c1)OCO2
0.6	-1	-7	C[C@H]1CN([C@@H](C)CO)C(=O)c2cccc(NC(=O)Nc3ccc(C(F)(F)F)cc3)c2O[C@@H]1CN(C)S(C)(=O)=O
1.4	1	4	O=C(C[C@@H]1CC[C@@H]2[C@H](COC[C@H](O)CN2Cc2cccc(C(F)(F)F)c2)O1)NCc1ccncc1
1.0	-1	-2	CC=Cc1ccc2n(c1=O)C[C@@H]1[C@@H](CO)[C@H](C(=O)NCc3ccccc3Cl)N(S(C)(=O)=O)[C@H]21 (mixture of isomers)
2.6	-1	5	O=C(C[C@H]1CC[C@H](NS(=O)(=O)c2ccc(F)cc2)[C@@H](CO)O1)NCCc1ccncc1

# Among those listed so far, these contain two or more sulfur atoms:
Ecoli rRNA inh RFP	Ecoli rRNA inh	Ecoli rRNA inh OD600	structure
1.0	-2	-1	COc1ccc(S(=O)(=O)N(C)C[C@@H]2OCCCC[C@H](C)Oc3ccc(NS(=O)(=O)c4cn(C)cn4)cc3C(=O)N([C@H](C)CO)C[C@@H]2C)cc1
2.8	-3	2	Cc1noc(C)c1S(=O)(=O)N(C)C[C@H]1OCCCC[C@@H](C)Oc2ccc(NS(=O)(=O)c3cn(C)cn3)cc2C(=O)N([C@@H](C)CO)C[C@H]1C
-1.1	-4	-4	C[C@H]1CN([C@@H](C)CO)C(=O)c2cccc(NC(=O)CCCCCC(=O)Nc3ccccc3N)c2O[C@H]1CN(C)S(=O)(=O)c1cccs1
0.4	2	12	CNC[C@H]1Oc2c(NS(=O)(=O)c3cccs3)cccc2C(=O)N([C@@H](C)CO)C[C@@H]1C
1.0	-4	-20	C[C@H]1CN([C@@H](C)CO)C(=O)c2cc(NC(=O)Cc3ccccc3)ccc2O[C@H]1CN(C)S(=O)(=O)c1cccs1
-1.2	-3	-1	Cc1ccc(S(=O)(=O)Nc2ccc3c(c2)C(=O)N([C@H](C)CO)C[C@H](C)[C@H](CN(C)S(=O)(=O)c2cccs2)OCCCC[C@H](C)O3)cc1
1.3	0	-3	C[C@H]1CN([C@@H](C)CO)C(=O)c2cccc(NC(=O)NC3CCCCC3)c2O[C@@H]1CN(C)S(=O)(=O)c1cccs1

# Screening data deposited in PubChem BioAssay by Broad Institute.
